Bioassay records: PubChem BioAssay, several laboratories
B2AR ag: human beta-2 adrenergic receptor agonism by FAP. 0.43% of 340,000 active. Am2.2-beta2AR cells, FAP receptor internalization, flow cytometry; reference of the scale not given here. AID 504454. P07550. response, % (test concentration not listed);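 active = response above a set limit, near 3 SD of response in nonfluorescent compounds, cut at about 42% in these data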;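 also: stock transfer was 100 nL into about 11 µL; a reference agonist was the positive control; negative values mostly stem from fluorescent compounds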
Target sequence (P07550 whole entry, looked up): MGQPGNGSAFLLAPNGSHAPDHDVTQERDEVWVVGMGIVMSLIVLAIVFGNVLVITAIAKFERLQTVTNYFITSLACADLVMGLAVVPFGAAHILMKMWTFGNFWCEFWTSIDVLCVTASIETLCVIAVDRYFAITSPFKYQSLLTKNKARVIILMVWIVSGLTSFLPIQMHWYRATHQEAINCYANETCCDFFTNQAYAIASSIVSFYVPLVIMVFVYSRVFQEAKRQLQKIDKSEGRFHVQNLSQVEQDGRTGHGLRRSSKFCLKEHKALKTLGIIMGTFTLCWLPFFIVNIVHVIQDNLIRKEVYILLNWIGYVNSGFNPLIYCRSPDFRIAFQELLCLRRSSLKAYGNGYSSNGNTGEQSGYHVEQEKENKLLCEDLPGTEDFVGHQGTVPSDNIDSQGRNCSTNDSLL
Beta cell apopt: blocks beta cell apoptosis | INS-1E cytokine-induced death, ATP luminescence, 48 h; percent of positive-control rescue, neutral wells zero | protection from apoptosis, % (test concentration not listed) | 0.8% of 300,000 active;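 active = all replicates at 75% or more, or half of them and the mean; inconclusive = half reach 75% but not the mean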;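 also: 0% = cytokine-treated negative control wells and 100% = positive control rescue; higher means more ATP so stronger rescue from cytokine killing; wells of about 40 µL received 100 nL stock; the first replicate is given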
Calb FLC: C. albicans growth modulation with fluconazole; growth inhibition, % (concentration not given with the values); C. albicans CaCi-2 (fluconazole-resistant clinical isolate) + fluconazole, Alamar Blue growth, 48 h; 0.57% of 300,000 active;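 active = most replicates above 75%; inconclusive = exactly half above 75%; inactive = most below 75%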;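 also: all wells also contain fluconazole at 8 µg/ml as a sub-toxic cotreatment; 0% = median of DMSO wells and 100% = median of geldanamycin control wells; wells of about 8 µL received 7.5 nL stock; the first replicate is given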
UCH37 inh: blocks the human deubiquitinase UCH37; 0.33% of 330,000 active; purified proteasome/UCH37, Ub-AMC cleavage fluorescence; AID 588478; inhibition, % (concentration not given with the values); Q9Y5K5;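 active = mean of two replicates above 20%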;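 also: 0% = compound-free wells with enzyme and 100% = wells lacking proteasome; stock transfer was 100 nL into about 20 µL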
Target sequence (Q9Y5K5 whole entry, looked up): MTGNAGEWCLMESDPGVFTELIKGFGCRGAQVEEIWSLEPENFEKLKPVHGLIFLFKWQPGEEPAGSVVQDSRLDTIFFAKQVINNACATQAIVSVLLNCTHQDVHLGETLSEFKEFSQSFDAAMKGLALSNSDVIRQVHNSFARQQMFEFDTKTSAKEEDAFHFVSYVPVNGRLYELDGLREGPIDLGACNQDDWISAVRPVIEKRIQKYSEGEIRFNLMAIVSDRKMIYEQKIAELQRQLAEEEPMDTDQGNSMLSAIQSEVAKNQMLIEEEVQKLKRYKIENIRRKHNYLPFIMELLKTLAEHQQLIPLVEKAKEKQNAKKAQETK
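Material: human UCH37 enzyme supplied as purified proteasome complex. Measure: % inhibition of Ub-AMC cleavage fluorescence. Medium: pH 7.4 Tris-HCl (50 mM) with ovalbumin, ATP-MgCl2, DTT. Times: 30 min preincubation with enzyme, 25 min cleavage at room temperature. Detection: AMC fluorescence intensity at 355/460 nm.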
LANA-H2B inh: blocks KSHV LANA binding to histone H2A/H2B. cell-free LANA-H2A/H2B peptide, fluorescence polarization. inhibition, % (no concentration beside the values). 0.6% of 320,000 active; in the data active = inhibition mostly above about 10%, no sharp cut-off; inactive = mostly below about 6.7%;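 also: stock transfer was 7.5 nL into about 10 µL; 0% = median of vehicle wells and 100% = median of positive control wells; one replicate is shown; the record names a cut of 25% in any replicate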
A1 inh: inhibitors of the anti-apoptotic protein A1, read as caspase activation | MEF A1-2A-BIM cells, Caspase-Glo 3/7 luminescence, 3 h; percent of clofoctol response, vehicle zero | caspase activation, % (test concentration not listed) | 0.066% of 330,000 active | AID 2462;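 active = over half of replicate activation scores above 10%, or exactly half above 10 with the replicate mean above 10; inconclusive = replicate mean below 10 yet half the replicates above 10; inactive = over half of replicates below 10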;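 also: wells of about 30 µL received 50 nL stock; many hits fall short of the cut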
RanGTP-Imp inh: inhibitors of RanGTP-importin-beta interaction, primary screen, biochemical, FRET, CFP-Ran, YFP-importin-beta, homogeneous; AID 2216; inhibition, % (test concentration not listed); cell-free CFP-Ran/YFP-importin-beta FRET ratio; 1.1% of 300,000 active;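 active = most replicates above 15%; inconclusive = exactly half above 15%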;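 also: 0% = DMSO wells and 100% = Ran loaded with GDP instead of GTP; wells of about 40 µL received 100 nL stock; the first replicate is given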
T cruzi inh: T. cruzi replication inhibition. T. cruzi beta-gal in NIH3T3, luminescence, 90 h. inhibition, % (test concentration not listed). 1.4% of 300,000 active. AID 1885;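 active = mean inhibition across valid replicates above about 55%, limit read from the data; inconclusive = mean below that limit but half or more replicates reach it; inactive = mean below it, under half of replicates reach it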;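 also: signal also drops with host cell toxicity which is not excluded here; 0% = plate median of DMSO wells and 100% = zero luminescence signal; higher percent means less beta-gal luminescence so fewer parasites; stock transfer was 50 nL into about 50 µL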
The depositor's hits bear a star; ? = inconclusive; nt = not tested or not shown. Outcome played no part in choosing rows; about 4.3% have a hit in one of these screens.

SMILES,B2AR ag,Beta cell apopt,Calb FLC,UCH37 inh,LANA-H2B inh,A1 inh,RanGTP-Imp inh,T cruzi inh
O=C(COc1ccccc1)NC1CCSc2ccccc21 (stereo not given),-2,0,2,3.8,-3.8,0.2,-2.9,-10
COc1ccc(-n2ncc3c(SCC(=O)NNC(C)=O)ncnc32)cc1,2,-3,nt,-4.2,5.1,-6.1,2.5,-18
CC(C)(C)NC(=O)CN(Cc1cccs1)C(=O)c1csnn1,0,-4,7,0.6,4.2,1.1,-0.3,-7
O=C(NNc1ccccc1Br)C(O)(c1cccc(C(F)(F)F)c1)c1cccc(C(F)(F)F)c1,28,125*,-4,3.6,6.1,-0.4,?,44
Cc1ccc2[nH]c(C(=O)N3CCC(C(N)=O)CC3)cc2c1,-9,-2,-32,-0.4,9.8,0.1,-2.0,-6
O=C(CSc1ncn[nH]1)N/N=C/c1ccc(C(F)(F)F)cc1,1,-2,7,nt,0.0,0.3,0.7,3
CCCNc1ccc(C(=O)OCC)cc1[N+](=O)[O-],-3,-4,-3,6.8,-0.5,-0.4,-1.5,-12
CC(C)(C)N=C1SCC(C)(/C=N/O)S1 (stereo not given),2,-10,-7,nt,-1.2,0.6,3.4,-1
CCOc1ccc(-c2nc(C#N)c(NC3CC3)o2)cc1,0,-5,-26,-54,2.4,-4.5,0.8,-5
CSc1sc(C)cc1/C=N/O,-3,-5,9,nt,-1.4,0.0,-2.8,-12
COC(=O)C1CN(C(=O)COc2ccc(C)cc2)c2ccccc2O1 (stereo not given),4,0,-1,2.8,-2.1,-0.2,1.3,-15
CCC(=O)N(CC(=O)Nc1sc(C)c(C)c1C(N)=O)C1CCCCC1,-1,nt,-15,5.0,-0.7,0.3,3.5,-4
CC(C)C1CC(CCNCc2ccc(N(C)C)cc2)(c2ccccc2)CCO1 (stereo not given),24,2,-5,nt,7.2*,-1.2,-1.1,30
Cc1ccc(Cn2c(NCCc3ccccc3)nc3c2c(=O)n(C)c(=O)n3C)cc1,0,22,19,4.8,-2.8,0.2,-2.1,19
CCN1CC(CN(C)Cc2cn(-c3ccc(C)cc3)nc2-c2cccc(C)c2)CC1=O (stereo not given),-19,-5,9,1.7,3.0,0.4,-0.5,2
O=C(CC(=O)c1cc(Cl)ccc1O)c1ccccc1,12,21,34,-1.1,11,-1.8,2.9,4
c1ccc2c(N3CCCCC3)nc(N3CCCC3)nc2c1,-19,17,-20,-10,3.0,-0.6,-1.0,34
Cc1ccc(C)c(NS(=O)(=O)c2c(C)ccc3nsnc23)c1,-6,-7,10,0.5,0.9,-0.3,-2.5,1
CCOc1ccc(NC(=O)/C(C#N)=C/c2ccc(N3CCCC3)c(C)c2)cc1,-52,7,nt,6.8,-6.2,0.3,nt,nt
N#Cc1c(SC(C(=O)O)c2ccccc2)nc2c(c1-c1cccs1)CCCC2 (stereo not given),9,-6,1,2.9,2.7,1.2,-2.1,37
CC(Nc1cc(=O)n(C)c(=O)[nH]1)c1ccccc1 (stereo not given),-8,-4,11,2.6,-5.6,-2.4,-1.2,6
COc1ccc(C(=O)c2ccc(OC)c(Br)c2)cc1Br,3,5,3,5.2,1.1,0.4,?,8
Cc1ccnc(NC(=O)c2cccc(S(=O)(=O)N3CCCC3)c2)c1,-1,-9,14,0.3,-5.7,-0.1,4.6,15
O=C(NC1CCN(Cc2ccccc2)CC1)C12CC3CC(CC(C3)C1)C2,-3,1,-1,0.9,3.3,-0.5,2.3,43
COc1ccccc1C(=O)Nc1nnc(-c2ccco2)s1,-22,0,-4,-47,3.8,0.0,1.8,10
COc1cccc(CN2CCNC(=O)C2CC(=O)N2CCCCO2)c1OC (stereo not given),-4,-7,0,-3.6,-4.1,1.7,0.6,-3
O=C(CCN1C(=O)C2C3CCC(C3)C2C1=O)Nc1ccccc1C(F)(F)F (stereo not given),-3,-7,-4,1.6,-1.4,0.2,0.9,-3
CCOC(=O)C1=C(C)NC(C)=C(C(=O)OCC)C1C(=O)OCC(=O)N(CC)C1CCS(=O)(=O)C1 (stereo not given),4,1,12,-33,-3.0,-0.4,4.5,-9
COc1cccc(/C=N/NC(=O)C(=O)N2CCCCCC2)c1O,3,0,-13,nt,0.3,1.0,1.9,-6
Nc1nc2ncc(-c3ccsc3)c(N)n2n1,-3,nt,3,-0.3,7.0,0.4,1.3,-10

Later entries.
SMILES,B2AR ag,Beta cell apopt,Calb FLC,UCH37 inh,LANA-H2B inh,A1 inh,RanGTP-Imp inh,T cruzi inh
Cc1cc(C(F)(F)F)c(C#N)c(SCC(=O)NC(C)(C)C)n1,-3,-3,25,5.9,-5.9,-0.7,-3.5,-8
Cn1ncc(C(=O)Nc2ccc(OC(F)(F)F)cc2)c1-n1cccc1,-2,2,0,4.6,1.9,0.0,3.9,-17
CC(=O)Nc1ccc(CN2CCCCCCC2)cc1,-1,13,18,4.4,-1.9,-0.1,-1.6,-6
Cc1ccc(NS(=O)(=O)c2cccc(C(=O)NCC(c3cccs3)N3CCOCC3)c2)cc1 (stereo not given),0,4,nt,0.4,nt,2.0,nt,nt
NC(=O)c1ccsc1NC(=O)CSc1nc2ccccc2c(=O)n1CCCO,-2,-2,-10,5.0,7.0,0.5,1.5,5
O=S(=O)(c1ccc(Oc2ccc(S(=O)(=O)N3CCOCC3)cc2)cc1)N1CCOCC1,0,-1,-4,3.3,3.8,1.1,0.1,3
CCCNC(=O)NNC(=O)c1ccc(F)cc1,-3,-6,3,5.5,-3.0,-0.2,6.5,-13
O=C(CSc1nc2[nH]ncc2c(=O)[nH]1)N1CCCC1,-19,-1,-3,0.9,-4.0,0.2,0.8,-2
O=C(c1ccc(Cl)c(S(=O)(=O)N2CCCC2)c1)N1CCN(c2ccc(F)cc2)CC1,-2,4,-6,6.1,-0.2,0.4,1.5,6
NC(=O)c1ccc(NC(=O)COC(=O)c2cc(S(=O)(=O)N3CCOCC3)ccc2N2CCCCC2)cc1,-7,6,-4,1.8,0.0,-0.6,1.7,-7
COC(=O)c1c2c(nc3ccccc13)CCC2,2,-2,4,0.9,0.5,0.2,-2.7,7
COC(=O)c1sc(-c2ccc(Cl)cc2)cc1NC(=O)CSCC(=O)O,0,-5,1,-7.5,-0.4,0.2,0.0,-6
COc1cc(O)c(C(CCN2CCCC2)c2ccc(N(C)C)cc2)c(OC)c1 (stereo not given),-6,0,14,3.3,-1.5,0.8,2.0,-2
O=C(c1ccccc1Cl)N1N=C(c2ccc(Br)cc2)CC1c1nc2ccccc2[nH]1 (stereo not given),-9,1,-1,3.1,1.3,0.0,-0.6,25
Clc1ccc(SCc2cc(Cl)nc(-c3ccccc3)n2)cc1,-6,-3,-10,3.3,-0.3,-0.5,1.9,-4
CCOC(=O)c1sc(=NC(=O)c2cc(OC)c(OC)c(OC)c2)n(C)c1C,5,6,8,-81,-2.7,0.4,-1.6,-8
C/C(=N\NC(=O)c1nn(C)cc1Cl)c1ccncc1,1,-5,6,nt,3.8,-0.8,-1.8,-13
O=C(NC1CC1)c1cccc(S(=O)(=O)Nc2ccccc2F)c1,0,nt,3,0.4,0.3,0.4,3.4,-13
CCn1c(CSc2nnc(-c3ccoc3C)n2C)nc2cc(S(=O)(=O)N(C)C)ccc21,4,3,-6,-2.2,4.1,0.2,?,4
CCOC(=O)C1CCCN(S(=O)(=O)c2ccc3c(c2)N(C(C)=O)CCO3)C1 (stereo not given),21,-11,-34,5.3,5.6,0.7,1.5,-4
COc1cccc(NC(=O)NC2CCCc3ccccc32)c1 (stereo not given),5,1,-12,1.8,0.1,-1.0,0.1,7

Some of these compounds in order of number of heavy atoms, low to high.
SMILES,B2AR ag,Beta cell apopt,Calb FLC,UCH37 inh,LANA-H2B inh,A1 inh,RanGTP-Imp inh,T cruzi inh
COC(=O)c1c2c(nc3ccccc13)CCC2,2,-2,4,0.9,0.5,0.2,-2.7,7
CC(=O)Nc1ccc(CN2CCCCCCC2)cc1,-1,13,18,4.4,-1.9,-0.1,-1.6,-6
Cc1cc(C(F)(F)F)c(C#N)c(SCC(=O)NC(C)(C)C)n1,-3,-3,25,5.9,-5.9,-0.7,-3.5,-8
O=C(NC1CC1)c1cccc(S(=O)(=O)Nc2ccccc2F)c1,0,nt,3,0.4,0.3,0.4,3.4,-13
COC(=O)c1sc(-c2ccc(Cl)cc2)cc1NC(=O)CSCC(=O)O,0,-5,1,-7.5,-0.4,0.2,0.0,-6
CCOC(=O)c1sc(=NC(=O)c2cc(OC)c(OC)c(OC)c2)n(C)c1C,5,6,8,-81,-2.7,0.4,-1.6,-8
NC(=O)c1ccsc1NC(=O)CSc1nc2ccccc2c(=O)n1CCCO,-2,-2,-10,5.0,7.0,0.5,1.5,5
O=C(c1ccccc1Cl)N1N=C(c2ccc(Br)cc2)CC1c1nc2ccccc2[nH]1 (stereo not given),-9,1,-1,3.1,1.3,0.0,-0.6,25
CCn1c(CSc2nnc(-c3ccoc3C)n2C)nc2cc(S(=O)(=O)N(C)C)ccc21,4,3,-6,-2.2,4.1,0.2,?,4
Cc1ccc(NS(=O)(=O)c2cccc(C(=O)NCC(c3cccs3)N3CCOCC3)c2)cc1 (stereo not given),0,4,nt,0.4,nt,2.0,nt,nt
NC(=O)c1ccc(NC(=O)COC(=O)c2cc(S(=O)(=O)N3CCOCC3)ccc2N2CCCCC2)cc1,-7,6,-4,1.8,0.0,-0.6,1.7,-7

Individual results from the list.
Value of Nc1nc2ncc(-c3ccsc3)c(N)n2n1 under A1 inh: 0.4
Value of O=C(c1ccccc1Cl)N1N=C(c2ccc(Br)cc2)CC1c1nc2ccccc2[nH]1 (stereo not given) under Beta cell apopt: 1
